StopGo RLuc: lowers the Renilla signal of an FMDV 2A StopGo reporter; AID 1745857; HEK cells with a luciferase reporter of 2A StopGo recoding; actives 0.32% (n = 120,000); Potency, µM (doses to about 57.5 µM), for the others: top-dose signal change, negative = less light; active means well fitted falling curve with a large enough effect; inconclusive means small, poorly fitted or top-dose-only effect; inactive means no such curve, though single readings can be large or run the other way; note: nearly all actives have a fitted effect of over 55% in size; overnight with compound
2A firefly: FMDV 2A StopGo reporter, firefly signal | Potency, µM (top dose mostly 57.5 µM), for inactives: at the highest dose signal change, negative = less light | HEK cells with a luciferase reporter of 2A StopGo recoding | actives 0.23% (n = 120,000) | AID 1745856; active = well fitted falling curve with a large enough effect; inconclusive = small, poorly fitted or top-dose-only effect; inactive = no such curve, though single readings can be large or run the other way; note: nearly all actives have a fitted effect of over 60% in size; overnight with compound
Active calls of the source: *; ? = inconclusive; & = joins results of further samples; [ ] = dose if it differs, or a comment. % is set by controls: 0 for no effect and ±100 for the full control effect; potency is the fitted concentration of half-maximal effect.

[1] Cn1c(Cl)c(C=O)c2ccccc21
[2] NC(=O)Cc1csc(NC(=O)CCc2ncc(-c3ccc(Cl)cc3)o2)n1
[3] COc1ccc(-c2nnn3c2nc(NCc2ccccc2)c2ccccc23)cc1
[4] O=C(CN1C(=O)c2cccnc2Oc2ccc(Cl)cc21)NCCc1ccccc1
[5] COC(=O)CCCCCn1c(-c2ccccc2)cn2c3c(=O)n(C)c(=O)n(C)c3nc12
[6] COc1ccc(OC)c(S(=O)(=O)Nc2ccccc2CCc2nc3ccccc3n2C)c1
[7] O=C(COc1cccc(Cl)c1)N1CCC(c2nc3ccccc3o2)CC1
[8] COc1cc(OC)cc(-c2nc(-c3nonc3N)no2)c1
[9] CCCCCCCCCCS(=O)CCC(=O)O (stereo not given)
[10] CS(=O)(=O)c1ncc(N(Cc2ccco2)Cc2cccs2)c(C(=O)Nc2ccccc2F)n1
entry no.	1	2	3	4	5	6	7	8	9	10
StopGo RLuc	-25.9%	-5.7%	5.5%	-13.3%	-5.6%	13.1%	5.0%&-3.3%	5.8%	-4.4%	12.6%
2A firefly	-12.3%	32.8%[activator]	44.1%[activator]	18.7%	-13.2%	-5.7%	8.6%&-15.3%	32.4%[activator]	-8.1%	-11.3%

[11] CSc1ccccc1NC(=O)/C=C/c1ccco1
[12] CCOc1ccccc1C(=O)Nc1ccc(-n2nncc2-c2ccccc2)cc1
[13] CC(C)c1ccc(NC(=O)C2CCCC2)cc1
[14] O=C(CCn1ccccc1=O)Nc1ccc(Cl)cc1Cl
[15] COc1ccccc1NC(=O)c1ccc2c(Cl)c3c(nc2c1)CCCC3
[16] CC1CCN(C(C)C(=O)Nc2ccc(Cl)cc2C(F)(F)F)CC1 (stereo not given)
[17] CCCn1nc(C(=O)Nc2cccc(OC)c2)c2ccccc2c1=O
[18] Cc1ccc(Cl)cc1N1CCN(C(=O)c2ccc3nc(N4CCC(C)CC4)sc3c2)CC1
[19] Cc1cccc(C)c1Nc1sc(C(=O)c2ccccc2)c(N)c1S(=O)(=O)c1ccccc1
[20] CCC1CCCCN1C(=O)c1cn(C)c2ccccc12 (stereo not given)
entry no.	11	12	13	14	15	16	17	18	19	20
StopGo RLuc	8.4%	2.8%	0.0%	-2.4%	9.2%	-4.6%	22.8%	4.1%	145.6%[activator]	19.9%
2A firefly	152.6%[activator]	-33.3%	153.9%[activator]	143.2%[activator]	33.2%[activator]	-10.6%	49.0%[activator]	?	8.3%	-6.5%

[21] CN(C)c1ccc(NC(=O)CSC2=Nc3ccccc3C3=NC(CCC(=O)NCc4cccs4)C(=O)N23)cc1 (stereo not given)
[22] COc1ccc2c(c1)c1c(c(=O)n(-c3ccc(F)c(Cl)c3)c(=O)n1CC(=O)N1CCCC1)n2C
[23] CCCCCCCC(=O)N/N=C/c1cccc2ccccc12
[24] Cc1cc(=O)oc2cc(OCC(=O)N(Cc3ccccc3)C(C)(C)C)ccc12
[25] COc1ccc(-c2nc(C(=O)N3CCCCCC3)nn2-c2ccccc2Cl)cc1
[26] Cc1ccc2oc(=O)n(CCNC(=O)Nc3ccc(Cl)cc3)c2c1
[27] COCCNC(=O)C1CCN(S(=O)(=O)c2ccc3c(ccn3C)c2)CC1
[28] N#CC1=C(N)Oc2n[nH]c(-c3ccc4c(c3)OCO4)c2C1c1cccc(O)c1 (stereo not given)
[29] CC(=O)Nc1ccc(NC(=O)Cn2nc(-n3nc(C)cc3C)ccc2=O)cc1
[30] CCOC(=O)c1[nH]c2ccccc2c1NC(=O)C(C)N1CCC2(CC1)OCCO2 (stereo not given)
entry no.	21	22	23	24	25	26	27	28	29	30
StopGo RLuc	-14.1%	-7.8%	18.8%	13.1%	98.0%[activator]	42.2%[activator]	16.3%	5.7%	-14.2%	14.6%
2A firefly	-29.4%	-7.5%	0.0%	16.6%	2.2%	-8.2%	17.8%	24.0%	-9.6%	14.8%

[31] O=C(Nc1ccc2nc(SCc3ccc(Br)cc3)sc2c1)c1ccc(Cl)cc1
[32] COc1ccc(-c2cn3nc(N4CCC(C(=O)Nc5ccc(C)cc5)CC4)sc3n2)cc1
[33] Cc1ccc(C(=O)Nc2ccc(O)c(-c3nc4ccccc4o3)c2)cc1C
[34] CCN1C(C(=O)Nc2ncccn2)=C(O)c2ccccc2S1(=O)=O
[35] O=C(Cc1ccc(Cl)c(Cl)c1)NCC1CN(Cc2ccccc2)CCO1 (stereo not given)
[36] CC1CCCCN1C(=O)CSc1n[nH]c(-c2ccccc2)n1 (stereo not given)
[37] CC(C)NC(=O)CCC(=O)N1Cc2ccccc2Oc2ncccc21
[38] O=S(=O)(c1cc(F)ccc1F)N1CCN(Cc2ccc3c(c2)CCO3)CC1
[39] COc1ccc(Cc2nnc(/C=C/c3ccccc3OC)o2)cc1
[40] Cc1cccc(Nc2nc(-c3ccccc3)c(C(=O)Nc3cccnc3)s2)c1
entry no.	31	32	33	34	35	36	37	38	39	40
StopGo RLuc	-0.1%	-16.6%	1.5%	-2.1%	15.7%	17.3%	-9.0%	17.5%	8.1%	32.0%[activator]
2A firefly	11.6%	0.0%	1.8%	0.6%	27.7%	91.2%[activator]	4.3%	8.9%	26.8%	133.6%[activator]

[41] CC(C)c1ccc(CNCCSc2nnnn2-c2ccccc2)cc1
[42] C/C=C/C=N/NC(=O)C(O)c1ccccc1 (stereo not given)
[43] Cc1ccc(-c2ccc(OC(=O)c3ccc(C)c(C)c3)cc2)cc1
[44] CCc1cc(=O)oc2c(C)c(OCc3ccc(OC)cc3)ccc12
[45] COc1ccc(C(CC(=O)Nc2cc(Cl)c(OC)cc2OC)N2Cc3ccccc3C2=O)cc1 (stereo not given)
[46] Cc1cc(Cl)ccc1Nc1nc(NCc2ccc3c(c2)OCO3)nc2nccnc12
[47] Cc1ccccc1CNC(C)(C)CO
[48] CC(=O)Oc1ccc2ccc3ccc(OC(C)=O)c4ccc1c2c34
[49] Cc1ccc(OCC(=O)Nc2sc3c(c2C(N)=O)CCCC3)c(C(C)(C)C)c1
[50] CCOc1ccc(S(=O)(=O)NCC(c2ccc(N(C)C)cc2)N2CCCC2)cc1 (stereo not given)
entry no.	41	42	43	44	45	46	47	48	49	50
StopGo RLuc	-16.4%	13.9%	-14.5%	-2.9%	212.9%[activator]	-9.3%	13.9%	?	-14.5%	-6.3%
2A firefly	-10.9%	6.6%	21.7%	44.7%[activator]	5.1%	0.5%	11.2%	-26.8%	-16.7%	-19.4%

Rewritten as labelled records: entries from further up.
46) Cc1cc(Cl)ccc1Nc1nc(NCc2ccc3c(c2)OCO3)nc2nccnc12
  StopGo RLuc: -9.3%
  2A firefly: 0.5%
47) Cc1ccccc1CNC(C)(C)CO
  StopGo RLuc: 13.9%
  2A firefly: 11.2%

New compounds follow
[51] Cc1cccc(CN2CCN(C(=O)c3cc(C4CC4)nn3-c3ccccc3)CC2)c1
[52] Cc1ccc(CNC(=O)C2CCN(S(=O)(=O)c3cn(C)cn3)CC2)cc1
[53] NC(=O)C1CCN(C(=O)c2ccc3ccn(Cc4ccccc4)c3c2)CC1
[54] Cc1cc(C)c(NC(=O)C2CCCN(C(=O)c3cnn(-c4ccccc4)c3-n3cccc3)C2)c(C)c1 (stereo not given)
[55] CCNC(=O)C1CCCN1S(=O)(=O)c1ccc(Br)s1 (stereo not given)
[56] Cc1ccc2c(COC(=O)COc3ccc(Br)cc3)cc(=O)oc2c1
[57] COCC(=O)Nc1cccc(-c2nc3cccnc3s2)c1
[58] CCOC(=O)c1[nH]c2ccccc2c1NC(=O)c1ccc(C)c(C)c1
[59] CCC(=O)N1CCc2cc(Br)cc(S(=O)(=O)N3CCC(C(=O)NCCCOC(C)C)CC3)c21
[60] Cc1cnc(NC(=O)c2cccnc2Oc2ccc(F)cc2Br)s1
entry no.	51	52	53	54	55	56	57	58	59	60
StopGo RLuc	-15.6%	3.0%	32.2%[activator]	-7.8%	0.0%	-10.7%	-13.1%	3.5%	23.9%	-8.9%
2A firefly	-5.0%	1.2%	6.5%	-13.3%	0.0%	0.5%	122.8%[activator]	43.4%[activator]	8.9%	57.2%[activator]

[61] CC(Sc1ccc(Cl)cc1)C(=O)N1CCN(c2nccs2)CC1 (stereo not given)
[62] COc1cc(C(=O)NCC(c2ccco2)S(=O)(=O)c2cccs2)cc(OC)c1OC (stereo not given)
[63] COc1ccc(NC(=O)CN2CCCN(S(=O)(=O)c3ccc(Br)cc3)CC2)c(OC)c1
[64] Cc1ccccc1CSc1nc2c(cnn2CCO)c(=O)[nH]1
[65] Nc1nccnc1C(=O)NCC1CC2c3ccccc3C1c1ccccc12 (stereo not given)
[66] Cc1ccccc1/C=N/Nc1ccc(S(N)(=O)=O)cc1[N+](=O)[O-]
[67] Cn1c(=O)c2c(ncn2Cc2ccc(Cl)cc2)n(C)c1=O
[68] COc1ccccc1C1NC(=S)NC2=C1CCc1ccccc12 (stereo not given)
[69] COC(=O)CCCCCCCCCC[N+]1(Cc2ccccc2)CCCCC1
[70] Cc1ccc(OCC(=O)NCC(=O)OCc2cc(=O)n3nc(CC(C)C)sc3n2)cc1
entry no.	61	62	63	64	65	66	67	68	69	70
StopGo RLuc	-9.9%	13.3%	-16.9%	11.2%	?	-15.0%	?	-15.2%	16.9%	-5.9%
2A firefly	24.7%	-12.5%	-12.0%	19.3%	?	0.0%	?	-17.9%	20.2%	-4.8%

In the list so far, these have bromine.
[31] O=C(Nc1ccc2nc(SCc3ccc(Br)cc3)sc2c1)c1ccc(Cl)cc1
[55] CCNC(=O)C1CCCN1S(=O)(=O)c1ccc(Br)s1 (stereo not given)
[56] Cc1ccc2c(COC(=O)COc3ccc(Br)cc3)cc(=O)oc2c1
[59] CCC(=O)N1CCc2cc(Br)cc(S(=O)(=O)N3CCC(C(=O)NCCCOC(C)C)CC3)c21
[60] Cc1cnc(NC(=O)c2cccnc2Oc2ccc(F)cc2Br)s1
[63] COc1ccc(NC(=O)CN2CCCN(S(=O)(=O)c3ccc(Br)cc3)CC2)c(OC)c1
entry no.	31	55	56	59	60	63
StopGo RLuc	-0.1%	0.0%	-10.7%	23.9%	-8.9%	-16.9%
2A firefly	11.6%	0.0%	0.5%	8.9%	57.2%[activator]	-12.0%

Other records:
[71] CCOC(=O)C1CCN(C(=O)C2CCN(c3nnc(C)c4c(C)n(-c5ccccc5)nc34)CC2)CC1
[72] CCC(CC)NC(=O)c1cccc(I)c1
[73] O=C(NCc1ccncc1)c1cc(S(=O)(=O)C2CCS(=O)(=O)C2)ccc1F (stereo not given)
[74] CCCc1nn(C)c2c(=O)[nH]c(-c3cc(S(=O)(=O)Nc4ccccc4)ccc3OCC)nc12
[75] C=CCc1ccccc1OCCn1c(C2CC(=O)N(Cc3ccc(F)cc3)C2)nc2ccccc21 (stereo not given)
[76] CC(Sc1nc(Cl)nc2nc[nH]c12)C(=O)NCCc1c[nH]c2ccc(F)cc12 (stereo not given)
[77] Cc1cc(C)c2c(C)c(C(=O)NCC(c3ccco3)N3CCCC3)oc2c1 (stereo not given)
[78] COc1ccc(Cl)cc1NC(=O)COC(=O)CCS(=O)(=O)c1ccc(NC(C)=O)cc1
[79] CCCN(C(=O)c1nn(-c2ccc(OC)c(Cl)c2)c(=O)c2c1c1ccccc1n2C)c1ccccc1F
[80] COc1ccc(C2CC(=O)Nc3ccsc32)cc1 (stereo not given)
entry no.	71	72	73	74	75	76	77	78	79	80
StopGo RLuc	-9.8%	20.7%	-11.1%	124.1%[activator]	112.9%[activator]	-2.4%	-6.7%	-9.0%	-9.7%	-2.7%
2A firefly	-19.0%	19.9%	-11.6%	-0.7%	-9.6%	-10.2%	68.9%[activator]	-4.1%	-19.6%	5.6%

[81] CC(C)COc1ccc(C(=O)Nc2ccc(S(=O)(=O)Nc3ncccn3)cc2)cc1
[82] COc1ccc(-c2cc(C(F)(F)F)n3nc(C(=O)NCC45CC6CC(CC(C6)C4)C5)cc3n2)cc1
[83] Cc1cc(OCC(=O)N2CCCCC2CCN2CCCC2)cc(C)c1Cl (stereo not given)
[84] COc1cccc(N(Cc2nnc3n2CCCCC3)C(=O)Nc2cccc(Cl)c2)c1
[85] N#Cc1ccc(N2CCC(C(=O)Nc3nccs3)CC2)nc1
[86] O=C(CN1CCCC1c1ccc2c(c1)OCCCO2)Nc1c(Cl)cccc1C(F)(F)F (stereo not given)
[87] Cc1ccc(-c2nn(C)c(=O)c3c2CCCC3)cc1S(=O)(=O)NC1CC1
[88] O=S(=O)(c1ccc(-c2csc(Nc3cccc4ccccc34)n2)cc1)N1CCOCC1
[89] C#CCN1CCC(C(=O)N(C)Cc2cccc(OC(F)F)c2)CC1
[90] O=C(Nc1cc(C(F)(F)F)ccc1Cl)c1cc2nc(-c3ccc4c(c3)OCO4)cc(C(F)(F)F)n2n1
entry no.	81	82	83	84	85	86	87	88	89	90
StopGo RLuc	4.1%	-8.2%	-3.9%	10.2%	-13.3%	4.4%	250.2%[activator]	0.0%	-11.1%	-9.1%
2A firefly	20.6%	-4.3%	-12.7%	-0.5%	-1.4%	-23.3%	46.5%[activator]	5.5%	-3.7%	-16.2%

A portion of the library (hit frequency here may not be typical).
